Screens as filed in PubChem BioAssay.
PINK1 modulator: PINK1 expression modulation; AID 624263; Potency, µM (highest dose often 76.6 µM), for the others: top-dose activation (PINK1 increase), hits mostly activators; 410,000 tested, 0.2% active; PINK1 immunofluorescence, high-content cytometry, 24 h; active = well fitted activation curve with a large enough effect; inconclusive = small, poorly fitted or top-dose-only effect; inactive = flat fitted curve, though single readings scatter; cell line not stated here;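 note: potency is the fitted concentration of half-maximal effect; % of control where 0% means no effect; nearly all actives have a fitted effect of over 65% in size; a mitochondrial uncoupler was the plate control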
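Measures PINK1 amount and localization on or inside mitochondria by immunofluorescence. Stable cells get compounds at 5 concentrations for 24 hours before fixation and staining; CCCP controls included.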
D2 ag: agonists of human D2 dopamine receptor (beta-arrestin); DiscoveRx PathHunter D2 beta-arrestin, luminescence, 90 min; 100% = 57 uM dopamine signal; activation, % (test concentration not listed); 360,000 tested, 0.084% active; AID 624465; in the data active = activation above about 40%; inconclusive = about 15% to 40%; inactive = below about 15%; note: compound concentration not given in the record; the text of the record calls up to 30% inactive
Target sequence (P14416 whole entry, looked up): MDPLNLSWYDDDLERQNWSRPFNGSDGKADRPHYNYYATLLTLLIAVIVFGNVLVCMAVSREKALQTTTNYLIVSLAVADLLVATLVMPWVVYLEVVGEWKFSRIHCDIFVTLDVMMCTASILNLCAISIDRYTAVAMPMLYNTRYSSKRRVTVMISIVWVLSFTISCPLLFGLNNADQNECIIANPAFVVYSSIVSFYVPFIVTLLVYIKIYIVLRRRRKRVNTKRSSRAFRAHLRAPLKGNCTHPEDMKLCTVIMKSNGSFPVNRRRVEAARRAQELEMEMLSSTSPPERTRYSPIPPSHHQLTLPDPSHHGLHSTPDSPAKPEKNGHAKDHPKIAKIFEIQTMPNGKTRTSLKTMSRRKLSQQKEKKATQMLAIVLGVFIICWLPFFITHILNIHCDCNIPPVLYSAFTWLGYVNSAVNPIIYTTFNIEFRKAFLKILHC
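Agonist mode: compounds alone added to overnight-plated D2 PathHunter cells for 90 min at 37 C, with 57 uM final dopamine (EC100) defining full response. Beta-arrestin recruitment detected by chemiluminescent reagent, read after 1 h at ambient temperature.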
TRPML1 agonist: human mucolipin-1 channel agonism. Q9GZU1. AID 624414. 410,000 tested, 0.12% active. TRPML1-expressing cells, Ca2+ dye fluorescence, FDSS; host cell line not named in the record; reference of the full effect not given here. activation, % (concentration not given with the values); in the data active = activation above about 50%; inconclusive = about 30% to 50%; inactive = below about 30%; note: 0% is about no effect; the text of the record puts the active cut at 80%
Target sequence (Q9GZU1 whole entry, looked up): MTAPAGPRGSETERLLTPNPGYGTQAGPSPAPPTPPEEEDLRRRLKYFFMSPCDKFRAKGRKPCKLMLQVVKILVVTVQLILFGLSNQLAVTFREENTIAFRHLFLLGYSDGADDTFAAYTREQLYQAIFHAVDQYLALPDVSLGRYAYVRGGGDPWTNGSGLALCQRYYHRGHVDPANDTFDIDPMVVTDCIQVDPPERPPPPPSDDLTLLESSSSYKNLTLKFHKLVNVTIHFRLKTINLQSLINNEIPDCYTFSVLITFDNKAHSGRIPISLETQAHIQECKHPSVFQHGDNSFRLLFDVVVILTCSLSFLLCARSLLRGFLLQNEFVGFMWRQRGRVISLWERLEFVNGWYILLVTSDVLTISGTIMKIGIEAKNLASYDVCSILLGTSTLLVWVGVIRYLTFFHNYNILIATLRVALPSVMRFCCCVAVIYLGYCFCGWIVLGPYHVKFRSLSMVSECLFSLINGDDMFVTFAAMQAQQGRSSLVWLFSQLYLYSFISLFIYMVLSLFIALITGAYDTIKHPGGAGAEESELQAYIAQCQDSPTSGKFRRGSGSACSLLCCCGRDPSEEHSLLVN
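Kinetic FDSS Ca2+ read in Tet-induced TRPML1-DL cells (ABD Ca8 dye plus quencher, 45-90 min RT loading): baseline, then compound, then 110 s agonist window; EC80 agonist 54-4 at 4uM final added afterwards for a 110 s antagonist window.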
D2 PAM: human D2 receptor positive allosteric modulation. 360,000 tested, 0.23% active. DiscoveRx D2 beta-arrestin cells, luminescence, 90 min; 100% = 57 uM dopamine signal. potentiation, % (test concentration not listed). P14416; active = potentiation of 50% or more; inconclusive = 30% to 50%; inactive = 30% or less;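 note: compound concentration not given in the record; tested on top of an EC20 dose of dopamine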
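PathHunter D2 cells, attached overnight at 37 deg C, received compound in DMSO plus dopamine at EC20 (50 nM final) for 90 min at 37 deg C. Beta-arrestin recruitment was read as luminescence after 1 h with detection reagent at ambient temperature.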
TRPML1 inh: inhibitors of human TRPML1 channel; TRPML1-inducible cells, Ca2+ dye fluorescence, FDSS; active compounds read low; inhibition of EC80 agonist-evoked calcium signal; activity change, negative = inhibition, % (concentration not given with the values); 390,000 tested, 0.02% active; in the data active means activity change below about -50%; inconclusive means about -30% to -50%; inactive means above about -30%;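 note: stimulus is agonist 54-4 at its EC80 concentration; % is set by controls: 0 for no effect and ±100 for the full control effect; the text of the record puts the active cut at -80%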
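Tet-induced TRPML1-DL cells loaded with Ca8 no-wash calcium dye were read kinetically on FDSS. Compound addition was followed by EC80 agonist 54-4 (4 uM final); inhibition was read over 110 s.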
Six1-Eya2 blk: blocks human Six1 binding to Eya2. AlphaScreen GST-Six1/His-Eya2 binding, biochemical; active compounds read low; control for the full effect not named in the record. Q15475+O00167. 360,000 tested, 0.56% active. AID 651725. activity change, % (test concentration not listed); in the data active = activity change below about -65%; inconclusive = about -30% to -65%; inactive = above about -30%; note: % is set by controls: 0 for no effect and ±100 for the full control effect
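Homogeneous AlphaScreen proximity assay pairing GST-Six1 with His-tagged Eya2 (added as 5X mix: 250 nM and 500 nM) in 50 mM Tris pH 8.0, 300 mM NaCl, 1 mM TCEP. Glutathione donor and nickel acceptor beads; 1 h, 37 °C, dark.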
Numbers without * were called inactive; ? = inconclusive; nt = no result given; [ ] = remark or other dose. Not a hit list. Share with any hit: about 1%.

SMILES	PINK1 modulator	D2 ag	TRPML1 agonist	D2 PAM	TRPML1 inh	Six1-Eya2 blk
O=C(NCC1CCCO1)c1c[nH]c2ccc(S(=O)(=O)Nc3cccc(C(F)(F)F)c3)cc2c1=O (stereo not given)	-1.0%	nt	2.9	nt	-3.6	nt
O=C(c1cccn1-c1nnc(N2CCCC2)s1)N1CCN(c2ccc(F)cc2)CC1	-1.1%	nt	1.3	nt	?	nt
Cc1cccc(N(CC(=O)NCCc2ccccc2)C(=O)CCC(=O)Nc2ccccn2)c1C	-2.3%	-8.7	0.7	-4.7	3.3	3.6
CC(C)Cc1ccc(S(=O)(=O)N2CCN(c3ccccn3)CC2)cc1	18.6%	-0.5	2.8	-5.7	-11.4	8.0
CCc1cc(=O)[nH]c(SCc2nc(-c3ccc(C(F)(F)F)cc3)no2)n1	1.7%	nt	-0.5	nt	-5.5	nt
CN(c1ccccc1)c1ccc(/C=C(\C#N)c2nnc3n2CCCCC3)cc1[N+](=O)[O-]	-2.5%	-1.9	-0.2	-6.7	-8.5	-12.3
CN(CC1CCN(CCc2cccc(C(F)(F)F)c2)CC1)C(=O)c1ccccc1	2.1%	-3.6	-0.2	-2.5	-8.5	0.8
CCn1nc(C)c(CNC(=O)c2cc(COc3ccccc3SC)on2)c1C	1.2%	-2.9	2.1	-12.3	-6.1	1.2
Cc1ccc(CNC(=O)c2ccc(S(=O)(=O)N(C)C)cc2)n1C	-0.5%	-5.1	0.0	-4.6	-6.5	1.8
Cc1cccc(C)c1OC(=O)CN1C(=O)c2ccccc2C1=O	4.0%	-4.9	-0.6	-1.7	-0.4	-4.7
Cc1ccc(O)c(-c2cc(C(=O)NCc3ccc4c(c3)OCO4)[nH]n2)c1	9.4%	?	0.4	19.6	20.1	-3.0
COc1ccc2cc(C3=CC(=O)CC(C)(C)C3=O)ccc2c1	1.2%	1.6	2.8	-3.1	3.8	18.0
Cn1c2ccccc2c2cnn(CC(=O)Nc3cccc(F)c3)c(=O)c21	4.2%	0.7	0.0	-4.8	-7.6	2.5
COCCCN1CN=C(Nc2nc3ccccc3o2)NC1	0.0%	-2.1	0.2	-2.8	12.2	-16.8
CCOC(=O)Cn1nnnc1C	2.1%	-4.1	0.6	-1.9	4.0	5.5
CC1(C)CC(=O)C(C=NCCN2CCN(CCc3ccccc3)CC2)=C(O)C1	-1.7%[38.3 µM]	-2.9	-0.1	-15.4	10.1	1.4
Cc1ccc(NS(=O)(=O)c2ccc3c(c2)CCN3C(=O)C2CC2)c(C)c1	0.9%	nt	-0.4	nt	-9.6	nt
COC(=O)C1=C(C)NC(=O)/C1=C\c1cc(C)n(-c2cc(C)cc(C)c2)c1C	5.0%	-4.2	-0.6	-8.2	-5.1	-23.8
COC(=O)c1ccc(OC)c(Cn2c(=O)n(C)c(=O)c3ccccc32)c1	0.7%	-0.6	0.9	-0.6	3.9	-3.7
Cc1cc(N(C)Cc2ccccc2)nc2cc(O)ccc12	-0.5%	-0.1	0.7	-9.3	-11.4	2.4
Cc1cc(C)c(S(=O)(=O)NCCCn2ccnc2)c(C)c1	2.6%	0.7	0.8	-0.9	-11.2	-3.9
CCC(c1nnnn1Cc1ccc(F)cc1)N1CCN(C2CCCCC2)CC1 (stereo not given)	0.6%	-1.8	1.1	2.2	1.0	6.2
O=C(CSc1nc(=O)[nH]c2c1CCCC2)Nc1ccccc1C(F)(F)F	1.1%	nt	-0.6	nt	-7.7	nt
O=c1n(Cc2ccc(Cl)cc2)c2sc3c(c2c2ncnn12)CCCC3	7.7%	-1.1	3.4	-4.2	22.4	-21.2
O=C(CCCN1C(=O)C2CCCCN2C1=O)N1CCN(c2ccc([N+](=O)[O-])cc2)CC1 (stereo not given)	0.2%	2.8	-0.5	4.2	2.8	9.1
COc1cccc(CN(Cc2ccccc2F)S(=O)(=O)c2ccc(S(=O)(=O)NCc3ccccc3)cc2)c1	14.0%	2.8	1.4	-7.7	27.5	2.0
CCOc1ccc(N2C(=O)/C(=C/c3ccc(C)o3)N(C)C2=S)cc1	?	2.9	0.3	6.4	-4.4	1.1
COc1ccc2nc3oc(C(=O)N4CCN(c5cccc(C(F)(F)F)c5)CC4)cc3cc2c1	1.2%	-1.2	-0.7	-0.3	48.6	2.3
Cc1nn2c(-c3ccc(S(=O)(=O)N4CCN(C)CC4)o3)nnc2c2ccccc12	4.9%	-0.6	-0.2	-9.0	6.1	-28.4
O=C(CCSc1nc2cc(Cl)ccc2o1)N1CCOCC1	-2.9%	0.1	4.6	-1.4	27.3	0.6
CCN(CC)C(=O)c1[nH]cnc1C(=O)N[C@@H](Cc1ccccc1)C(=O)OC(C)(C)C	1.3%	-2.5	-0.3	-12.4	-14.0	0.4
CCCCOc1c(Br)cc(/C=C2\N=C(C)OC2=O)cc1OCC	15.1%[38.3 µM]	-0.8	4.4	1.4	0.7	3.2
Cc1ccc(-c2c(C#N)c(N)nc3c2CCCCCC3)o1	6.5%[38.3 µM]	-3.2	0.6	-0.3	-4.8	1.7
CCc1ccc2c(c1)cc(CN(C(=S)Nc1ccc(Cl)cc1)C1CC1)c1nnnn12	?	-4.2	-0.3	-13.8	6.7	-2.3
CCCN(CC(=O)Nc1ccccc1C)C(=O)CCCOc1ccc(Br)cc1	2.8%	-0.9	-1.5	-1.1	1.9	0.7
COc1ccc(Cn2c(O)c(C=Nc3ccc(C)cc3)c3ccccc3c2=O)cc1	-1.2%	-0.9	-0.1	-0.8	13.2	5.0
Cc1ccc2c(c1)-c1c(ssc1=S)C(C)(C)N2C(=O)c1ccco1	-0.4%[38.3 µM]	-6.2	-0.2	-24.8	6.0	?
O=C(NN1CCOCC1)c1cccc(Br)c1	0.3%	-4.4	-0.1	-3.5	-12.0	6.0
COc1ccccc1NC(=O)C(Cc1ccccc1)NS(=O)(=O)c1ccc2c(c1)c(=O)n(C)c(=O)n2C (stereo not given)	0.0%	nt	0.0	nt	-0.6	nt
CCC1CCCCN1CCCNC(=O)Cn1ncc2c([nH]c3ccc(C)cc32)c1=O (stereo not given)	-1.6%	-1.9	-0.4	-21.0	-6.6	-0.7
COCCN(Cc1ccccc1)C(=O)c1ccc2c(c1)NC(=O)CS2	-0.4%	-2.0	0.3	0.8	4.0	-5.4
COc1ccc(CCNS(=O)(=O)c2cccc([N+](=O)[O-])c2)cc1OC	-0.2%	5.5	0.4	-1.9	-6.8	2.4
COc1cc(C)c(C(=O)Oc2cc(C)c(C(=O)O)c(O)c2C)c(O)c1C(=O)O	2.3%	-1.0	0.5	3.1	3.2	-12.4
CCCNC(=O)C12CCC(C)(c3nc4cc(C)c(C)cc4nc31)C2(C)C (stereo not given)	0.8%	-2.9	0.7	-5.4	-11.7	-0.4
COc1ccc2ccc(O)c(CN(C)CC(=O)Nc3ccccc3C(F)(F)F)c2c1	5.0%	8.9	2.7	1.8	-9.9	2.2
Cc1oc(-c2ccc(C(=O)NCc3ccccc3Cl)cc2)nc1CN1CCc2ccccc21	-0.4%	nt	2.5	nt	30.9	nt
Cc1cc(NC(=O)Cn2nc(-c3ccccc3F)ccc2=O)ccc1-n1cnnn1	?	-1.1	1.4	-11.7	25.2	-0.6
COc1cccc(CN2CC(C(=O)NCc3cnn(C)c3)CCC2=O)c1 (stereo not given)	-0.7%	-7.1	0.3	-6.8	1.0	0.4
Cc1cccc(NNC(N)=S)c1C	0.4%	-1.9	0.0	-11.3	-7.9	1.2
COc1cc(C2Nc3ccccc3NC3=C2C(=O)CC(C)(C)C3)cc(OC)c1OC(C)=O (stereo not given)	1.8%	7.3	-0.3	-3.4	-3.8	5.8

Next compounds follow:
SMILES	PINK1 modulator	D2 ag	TRPML1 agonist	D2 PAM	TRPML1 inh	Six1-Eya2 blk
COc1ccc(OC)c(C2CC(=O)NC(SC)=C2C#N)c1 (stereo not given)	-0.6%	-6.0	-1.0	1.0	-6.1	-3.3
CCN(CC)C(=O)[C@H]1C[C@H](CC(=O)NCCN2CCOCC2)C(=O)N2CCc3c([nH]c4cc(CCC(=O)N(C)C)ccc34)[C@]12C	1.1%	0.2	-0.2	nt	30.7	2.7
COC(=O)c1c(N2C(=O)CC(Sc3ccccc3C(=O)O)C2=O)sc2c1CCCC2 (stereo not given)	-0.4%	-2.8	-0.1	3.6	19.0	-7.4
CC1CCCN(c2ncnc3c2nc2n3CCCCC2)C1 (stereo not given)	0.3%	nt	-0.8	nt	0.3	nt
Cc1ccc(CN(c2ccc(C(=O)NCc3ccccn3)cc2)S(C)(=O)=O)cc1	0.6%[38.3 µM]	-1.7	2.1	-6.3	-6.6	-1.1
CC(C)c1nc2sc3c(SCC(=O)NCc4ccco4)ncnc3c2c2c1CCC2	3.1%	0.0	-0.5	-22.7	-21.5	-26.2

In the list so far, these have fluorine.
SMILES	PINK1 modulator	D2 ag	TRPML1 agonist	D2 PAM	TRPML1 inh	Six1-Eya2 blk
O=C(NCC1CCCO1)c1c[nH]c2ccc(S(=O)(=O)Nc3cccc(C(F)(F)F)c3)cc2c1=O (stereo not given)	-1.0%	nt	2.9	nt	-3.6	nt
O=C(c1cccn1-c1nnc(N2CCCC2)s1)N1CCN(c2ccc(F)cc2)CC1	-1.1%	nt	1.3	nt	?	nt
CCc1cc(=O)[nH]c(SCc2nc(-c3ccc(C(F)(F)F)cc3)no2)n1	1.7%	nt	-0.5	nt	-5.5	nt
CN(CC1CCN(CCc2cccc(C(F)(F)F)c2)CC1)C(=O)c1ccccc1	2.1%	-3.6	-0.2	-2.5	-8.5	0.8
Cn1c2ccccc2c2cnn(CC(=O)Nc3cccc(F)c3)c(=O)c21	4.2%	0.7	0.0	-4.8	-7.6	2.5
CCC(c1nnnn1Cc1ccc(F)cc1)N1CCN(C2CCCCC2)CC1 (stereo not given)	0.6%	-1.8	1.1	2.2	1.0	6.2
O=C(CSc1nc(=O)[nH]c2c1CCCC2)Nc1ccccc1C(F)(F)F	1.1%	nt	-0.6	nt	-7.7	nt
COc1cccc(CN(Cc2ccccc2F)S(=O)(=O)c2ccc(S(=O)(=O)NCc3ccccc3)cc2)c1	14.0%	2.8	1.4	-7.7	27.5	2.0
COc1ccc2nc3oc(C(=O)N4CCN(c5cccc(C(F)(F)F)c5)CC4)cc3cc2c1	1.2%	-1.2	-0.7	-0.3	48.6	2.3
COc1ccc2ccc(O)c(CN(C)CC(=O)Nc3ccccc3C(F)(F)F)c2c1	5.0%	8.9	2.7	1.8	-9.9	2.2
Cc1cc(NC(=O)Cn2nc(-c3ccccc3F)ccc2=O)ccc1-n1cnnn1	?	-1.1	1.4	-11.7	25.2	-0.6
